GIV-Gai inh – blocks GIV peptide binding to rat Galpha-i3 | P08753 | Galpha-i3/FITC-GIV peptide fluorescence polarization, 90 min; active compounds read low; scaled: aluminum fluoride 0%, vehicle 100% | percent of control (FP), % (test concentration not listed) | hit rate 0.42% among 210,000 | AID 1224905;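 active = replicate mean at 85% of control or lower, very high polarization wells dropped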;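 note: lower values mean more displacement of the GIV peptide from Galpha-i3; wells of about 15 µL received 100 nL stock; the first replicate is given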
Target sequence (P08753 whole entry, looked up): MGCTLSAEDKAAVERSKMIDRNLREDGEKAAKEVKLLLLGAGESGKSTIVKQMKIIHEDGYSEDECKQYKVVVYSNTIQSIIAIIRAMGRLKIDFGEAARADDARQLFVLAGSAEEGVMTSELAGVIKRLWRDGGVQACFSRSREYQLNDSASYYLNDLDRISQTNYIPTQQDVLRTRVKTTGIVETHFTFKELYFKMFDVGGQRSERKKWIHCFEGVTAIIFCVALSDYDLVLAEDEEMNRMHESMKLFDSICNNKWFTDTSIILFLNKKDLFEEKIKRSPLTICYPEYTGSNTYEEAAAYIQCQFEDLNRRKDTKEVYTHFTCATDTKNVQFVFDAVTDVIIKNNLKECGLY
An asterisk follows results filed as active.

SMILES	GIV-Gai inh
N#Cc1c(-c2ccccc2)cc(-c2cccs2)nc1SCCS(=O)Cc1ccccc1 (stereo not drawn)	110
O=C1C2C3c4ccccc4C(c4ccccc43)C2C(=O)N1CCCO (stereo not drawn)	105
O=C1CCCC2=C1C(c1cccc(Br)c1)C1=C(CCCC1=O)O2	101
Cc1ccc2c(c1)C(c1ccccc1)=NNC(c1ccccc1)=N2	108
COc1cc(C(=O)C2CC(=O)Nc3n[nH]c(-c4ccc(OC)c(OC)c4)c32)ccc1F (stereo not drawn)	100
Cc1ccc(-c2ccc(N3CCN(c4ccccn4)CC3)nn2)cc1S(=O)(=O)N1CCCC1	101
O=C(CSc1nc2ccccc2nc1Cc1cccc([N+](=O)[O-])c1)NCc1ccccc1	102
Cc1ccc(-c2nc(C3CCN(S(=O)(=O)c4cc(C)c(C)cc4C)CC3)no2)cc1	107
Cc1ccc(C=Nc2c(C)n(C)n(-c3ccccc3)c2=O)cc1	103
O=C(Nc1ccc(SCc2nnc(-c3ccccc3)o2)cc1)c1cccc(Cl)c1	96
COc1ccc(-n2nc3c(c2NC(=O)COc2ccc(Cl)cc2Cl)CS(=O)(=O)C3)cc1	108
CCC(Sc1nc2ccccc2c(=O)n1NC(=O)c1cccs1)C(=O)NCc1cccnc1 (stereo not drawn)	111
COc1ccc(C2=NN3C(C2)c2cccc(OC)c2OC3c2ccccc2Cl)cc1 (stereo not drawn)	112
Cc1ccc2[nH]c3c(c(=O)c2c1)CN(Cc1ccccc1F)CC3	105
O=C(C1CCCN(S(=O)(=O)Cc2ccccc2Cl)C1)N1CCOCC1 (stereo not drawn)	100
CCOC(=O)c1ccc(N2C(=O)C3C(c4ccc(F)cc4)OC4(C(=O)c5ccccc5C4=O)C3C2=O)cc1 (stereo not drawn)	105
CCc1nnc(NC(=O)c2sc3nc(-c4cccs4)cc(C(F)(F)F)c3c2N)s1	189
COc1ccc(C2=NN(C(=O)CSc3nnc(CNC(=O)c4cccs4)n3C)C(c3ccc(OC)cc3)C2)cc1 (stereo not drawn)	102
O=c1nc2n(-c3cccc(Cl)c3)c3ccccc3cc-2c(=O)[nH]1	103
CCN(CC)c1ccc(C(=O)Nc2cc(C(=O)Nc3ccccc3F)ccc2N2CC3CC(C2)c2cccc(=O)n2C3)cc1 (stereo not drawn)	109
Cc1ccc(F)cc1NS(=O)(=O)c1cc(-c2nc(C(C)(C)C)cs2)cs1	107
COc1ccc(OC)c(NC(=O)C2=C(C)NC(=O)NC2c2ccc(Cl)cc2)c1 (stereo not drawn)	111
O=C1CC(c2cc(Br)ccc2F)c2ccc3ccccc3c2N1 (stereo not drawn)	105
O=C(Nc1ccc(F)c(Cl)c1)c1ccc(Oc2ccnc(-c3ccc(F)cc3)n2)cc1	104
COc1ccc(C(=O)Nc2cnc3oc(-c4ccccc4OC(C)C)nn3c2=O)cc1OC	113
COc1ccc(C2CC(C(F)(F)F)n3nc(C(=O)N4CCN(c5cccc(Cl)c5)CC4)cc3N2)cc1OC (stereo not drawn)	110
COc1ccc(NC(=O)CCS(=O)(=O)c2ccc3c(c2)NC(=O)CCS3)cc1OC	103
CCCOc1ccc(-c2noc(Cc3nc(-c4ccc(F)cc4)cs3)n2)cc1	107
CCc1ccc(S(=O)(=O)Nc2ccc3oc4c(c3c2)CC(C)CC4)cc1 (stereo not drawn)	104
Cc1cc(SCC(=O)Nc2c(F)cccc2F)nc2ccc(S(=O)(=O)N3CCCC3)cc12	102
Cc1cc(SCC(=O)NC(C)C)n2ncc(-c3ccc(F)cc3)c2n1	95
CCOCCCNC(=O)N1CCC2(C1)C(=O)Nc1ccccc12 (stereo not drawn)	95
O=S1(=O)N=CN(c2cc(F)cc(F)c2)c2ncccc21	104
O=S(=O)(c1cccc2nsnc12)N1CCC(c2ccncc2)CC1	99
COc1ccc(OC)c(C2Nc3cccc4cccc(c34)N2)c1	114
Cc1oc(-c2ccccc2)nc1Cn1nnc(-c2nc(-c3cccc(F)c3)no2)c1C	102
COc1ccc(C2CC(=O)C3=C(C2)c2c(ccc4ccccc24)NC3c2ccc(OC)c(OC)c2)cc1 (stereo not drawn)	107
CCCCOc1ccc(C2C(N3C(=O)c4ccccc4C3=O)C(=O)N2c2cccc(C(F)(F)F)c2)cc1 (stereo not drawn)	113
Cc1ccc(-c2nc3sc(CCNC(=O)c4ccc(Br)cc4)c(C)n3n2)cc1	100
O=C(CCc1nc(CS(=O)(=O)c2ccc(Cl)cc2)no1)N1CCOCC1	105
CCc1nc(-c2ccc(C)c(S(=O)(=O)N3CCc4ccccc4C3)c2)no1	100
COc1cc(OC)c(NC(=O)c2sc3ncn(CC(=O)Nc4ccc(C)c(Cl)c4)c(=O)c3c2C)cc1Cl	107
CCN(CC)C(=O)CN(C)S(=O)(=O)c1cc2c(cc1Cl)NC(=O)CO2	107
COc1ccc(NC(=O)N2CCN(c3nc4cc(Br)ccc4n4cccc34)CC2)cc1OC	102
COc1ccc(NC(=O)N2CCOc3ccc(COCc4ccc(C)cc4)cc3C2)c(OC)c1	95
O=C(NC1CC1)c1ccc2c(c1)CCN2C(=O)C1CC1	107
COc1cc(C2N(c3ccc(Cl)cc3)N=C(C(C)=O)N2c2ccc(N3CCOCC3)cc2)ccc1OCc1ccc(Cl)cc1 (stereo not drawn)	107
CCOC(=O)c1c(NC(=O)CSc2nnc(CNC(=O)c3ccccc3C(F)(F)F)n2C)sc2c1CCC2	116
O=S(=O)(NC1c2cccc3cccc(c23)C1N1CCOCC1)c1ccccc1 (stereo not drawn)	107
COc1ccccc1CNc1ccc(C(=O)N2CCN(C)CC2)cc1S(=O)(=O)Nc1cccc(C(F)(F)F)c1	103
CC(C)CCNC(=O)N1CCCN(c2nc3cc(Br)ccc3n3cccc23)CC1	108
CC1=C(C(=O)OC(C)C)C(c2cn(-c3ccccc3)nc2-c2cccs2)C(C(=O)OC(C)C)=C(C)N1	112
CCC(C)N1C(=O)N(c2cccc3ccccc23)C(n2oc(=O)n(-c3cccc4ccccc34)c2=O)C1(C)C (stereo not drawn)	113
O=C1OC(c2cc([N+](=O)[O-])cc([N+](=O)[O-])c2)=N/C1=C\c1ccccc1Br	110
O=c1oc2cc(O)ccc2cc1-c1nnc(NCc2ccccc2)s1	-32*
COc1ccc(/C=C2\C=C(c3ccccc3)N(c3cccc4ccccc34)C2=O)cc1Br	152
O=C(Nc1cc(Cl)cc(Cl)c1)c1cc(S(=O)(=O)NCC2COc3ccccc3O2)ccc1F (stereo not drawn)	110
Cc1ccc(C)c(Cn2nc3c(S(=O)(=O)N4CCCC4)cccn3c2=O)c1	110
CNC(=O)c1cc2cc(N(C)S(C)(=O)=O)ccc2s1	108
Cc1ccccc1-n1c(=S)sc2c1nc(SCc1ccccc1Cl)n1c3ccccc3nc21	104

A second format for some results above.
| GIV-Gai inh | SMILES |
| --- | --- |
| 112 | CC1=C(C(=O)OC(C)C)C(c2cn(-c3ccccc3)nc2-c2cccs2)C(C(=O)OC(C)C)=C(C)N1 |
| 110 | O=C1OC(c2cc([N+](=O)[O-])cc([N+](=O)[O-])c2)=N/C1=C\c1ccccc1Br |
| 107 | O=S(=O)(NC1c2cccc3cccc(c23)C1N1CCOCC1)c1ccccc1 (stereo not drawn) |
| 110 | Cc1ccc(C)c(Cn2nc3c(S(=O)(=O)N4CCCC4)cccn3c2=O)c1 |
| 108 | CC(C)CCNC(=O)N1CCCN(c2nc3cc(Br)ccc3n3cccc23)CC1 |

Following part
SMILES	GIV-Gai inh
CCOc1ccc(-n2c(CNC(=O)c3ccco3)nnc2SCC(=O)Nc2nc3ccccc3s2)cc1	106
CC(C)Cc1csc(-c2csc(S(=O)(=O)NC3CCCCC3)c2)n1	100
CC(C)Cn1cc(S(=O)(=O)N2CCSCC2)c2cccnc21	104
Cc1ccc2c(=O)c(-c3nc(-c4ccc(Cl)cc4)no3)cn(Cc3cccc(Br)c3)c2n1	181
Clc1ccc(-c2nc3ccccc3nc2-c2ccc(Cl)cc2)cc1	121
Fc1ccc(Cl)c(-c2nc(-c3ccn4cnnc4c3)no2)c1	104
Cc1cc(C)cc(C(=O)N2CCN(c3nc(C)cc(N4CCCC4)n3)CC2)c1	106
Cc1ccc2nc(-c3ccccc3NS(=O)(=O)c3ccccc3)ccc2c1	101
CN1CCN(c2c3c(c(C#N)c4nc5ccccc5n24)CCC3)CC1	111
COc1ccc(NC(=O)c2nn3c(C(F)(F)F)cc(-c4ccco4)nc3c2Cl)c(OC)c1	102
N#Cc1cc(C#N)c(SCC(=O)Nc2cccc(C(F)(F)F)c2)nc1N	109
Cc1nn2c(c1-c1ccc(Cl)c(S(=O)(=O)N3CCCC3)c1)NC(=O)CCC2=O	109

Brought forward from above: 6 compounds, then new ones.
SMILES	GIV-Gai inh
Cc1cc(C)cc(C(=O)N2CCN(c3nc(C)cc(N4CCCC4)n3)CC2)c1	106
Cc1ccc2nc(-c3ccccc3NS(=O)(=O)c3ccccc3)ccc2c1	101
CN1CCN(c2c3c(c(C#N)c4nc5ccccc5n24)CCC3)CC1	111
COc1ccc(NC(=O)c2nn3c(C(F)(F)F)cc(-c4ccco4)nc3c2Cl)c(OC)c1	102
N#Cc1cc(C#N)c(SCC(=O)Nc2cccc(C(F)(F)F)c2)nc1N	109
Cc1nn2c(c1-c1ccc(Cl)c(S(=O)(=O)N3CCCC3)c1)NC(=O)CCC2=O	109
CCC(C)c1ccc(O)c(NC(=O)COc2ccc(Cl)cc2-n2cnnc2)c1 (stereo not drawn)	107
CCS(=O)(=O)c1nc2ccc(NS(=O)(=O)c3ccc(C4CCCCC4)cc3)cc2s1	107
C=CCNC(=O)C1CCCN(Cc2noc(-c3ccc(C)cc3)n2)C1 (stereo not drawn)	106
CCOc1ccccc1NC(=O)N(C)Cc1nc2cc(C(=O)N(C)C)ccc2n1CC	105
COc1ccc2cc(C(=O)N3CCC(C(C)C(=O)NCCc4c[nH]c5ccccc45)CC3)[nH]c2c1 (stereo not drawn)	100
COc1ccc(Nc2nc(NCc3ccco3)c3ccccc3n2)cc1	101
Cc1cc(C)c(C2=NON3N(C(=O)c4ccc(Cl)cc4Cl)c4ccccc4N23)c(C)c1	104
Cc1ccc(-n2ccnc2SCc2nc(-c3cccc(F)c3)no2)cc1	114
S=c1sc2c(N3CCN(Cc4ccccc4)CC3)ncnc2n1-c1ccccc1	111
Cc1c(CC(=O)O)c2c(n1-c1ccc(F)cc1)CCCC2=O	108
COc1cc(C2C(C#N)=C(N)Oc3n[nH]c(C)c32)cc(Br)c1OCc1ccc(F)cc1 (stereo not drawn)	102
CC1=C(C(=O)Nc2ccc(C)c(Cl)c2)C(c2ccc(F)cc2)NC(=O)N1 (stereo not drawn)	102
Cc1ccc(S(=O)(=O)N2CCC3(CC2)NCCN=C3NCc2ccccc2)cc1C	106
CC(=O)NC1C(OC(C)=O)OC(COC(C)=O)C(OC(C)=O)C1OC(C)=O (stereo not drawn)	105
Cn1c(=O)c([N+](=O)[O-])c(Sc2ccccc2)c2ccccc21	111
CCOc1ccc(S(=O)(=O)N2CCCC(C)(C(=O)NCc3ccccc3C)C2)cc1 (stereo not drawn)	106
COc1ccc(-c2cncc(C(=O)NCCC3=CCCCC3)c2)cc1	108
O=S(=O)(c1cccc(-c2nnc(-c3ccc(F)cc3)o2)c1)N1CCCC1	105
O=C1CN(c2ncnc3c2cnn3-c2ccc(Cl)cc2)CC(=O)N1CCc1ccccc1	107
CCOC(=O)c1c(N)sc2c1CCN(C(C)=O)C2	99
Cc1ccc(NC(=O)c2ccc3c(c2)OCCCO3)cc1	102
O=C(NCCc1cscn1)[C@H]1CSCN1C(=O)CSc1ccccc1	99
C=CCn1c(SCc2nc3ccccc3[nH]2)nc2sc3c(c2c1=O)CCCC3	116
CCOc1cc(C2C3=C(CC(C)(C)CC3=O)OC3=C2C(=O)CC(C)(C)C3)ccc1OCc1ccccc1F	104
CN1CCN(S(=O)(=O)c2ccc3[nH]cc(C(=O)O)c(=O)c3c2)CC1	109
CCOC(=O)C1=CN(Cc2ccc(OC)cc2)C=C(C(=O)OCC)C1c1ccc(OCC)c(OC)c1	120
Cc1csc(NC(=O)C2CCN(S(=O)(=O)c3cc(-c4noc(C)n4)ccc3Cl)CC2)n1	102
COc1ccc(C(=O)Nc2ccc(S(=O)(=O)N3CCCCC3)cc2)cc1	112
COc1ccc(-c2oc(/N=C/c3ccc(N(C)C)cc3)c(C#N)c2-c2ccc(OC)cc2)cc1	108
O=C1c2ccccc2-c2onc3c(Br)cc(Sc4ccccc4)c1c23	107
COc1cccc2c1OC(c1cccc(Cl)c1)N1N=C(c3cccnc3)CC21 (stereo not drawn)	122
COc1cc(Nc2ncnc3c2cnn3-c2ccc(C)cc2C)cc(OC)c1OC	109
O=C(Cc1ccc(F)cc1)Nc1cccc(-c2ccc3ccccc3n2)c1	100
Cc1nc2ccccc2c(=O)n1-c1ccc(NC(=O)c2cc(Cl)ccc2F)cc1	104
CN(C)S(=O)(=O)c1ccc2c(c1)cc(C(=O)NCc1ccc3c(c1)OCO3)n2Cc1ccncc1	101
COC(=O)CC(=O)Nc1nc(-c2ccccc2)cc(-c2ccccc2)c1C#N	101
Cn1cnc2ccc(-c3noc(-c4ccc5cc[nH]c5c4)n3)cc21	110
O=C(NCCCN1CCCC1)C1CCN(c2cncnc2N2CCOCC2)CC1	105
COc1ccc(S(=O)(=O)n2c(SCc3cccc([N+](=O)[O-])c3)nc3ccccc32)cc1	112
Nc1ccc2nc(SCc3nc4ccccc4c(=O)n3-c3cccc(C(F)(F)F)c3)[nH]c2c1	103
O=C(CSc1ccccc1)N1CCN(Cc2cc(=O)n3nc(-c4cccc(F)c4)sc3n2)CC1	99

A portion of the library; the hit share may differ from the screen's.
